WNV NS2B-NS3 inh = inhibitors of West Nile virus NS2B-NS3 protease; AID 577; P06935; WNV NS2B-NS3 protease, fluorogenic substrate Ex360/Em465; stronger effect = lower value; z-score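 (tested at a level between 10 and 100 µM)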; 65,000 compounds, 0.18% hits;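 active means z-score at -3 or under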;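 further: score is relative to mean and spread of the compound wells of a plate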
Target sequence (P06935 1371-1501 limits assumed): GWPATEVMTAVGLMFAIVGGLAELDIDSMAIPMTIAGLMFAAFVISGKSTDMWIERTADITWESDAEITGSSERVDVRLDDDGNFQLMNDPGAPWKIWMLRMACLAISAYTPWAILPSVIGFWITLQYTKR
Target sequence (P06935 1502-1679 limits assumed): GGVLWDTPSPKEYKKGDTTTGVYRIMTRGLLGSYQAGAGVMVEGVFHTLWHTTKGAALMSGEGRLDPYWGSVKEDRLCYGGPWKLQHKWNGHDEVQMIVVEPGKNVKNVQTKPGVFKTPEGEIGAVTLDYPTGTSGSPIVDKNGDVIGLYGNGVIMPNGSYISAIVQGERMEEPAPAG
Hsc70 = small molecules displacing fluorescent ligand from Hsc70 – biochemical, fluorescence polarization, primary screen (AID 568). 83,000 tested, under 10 active. displacement, % at 20 µM, or IC50 in µM where a hit was titrated. Hsc70 fluorescence polarization, probe displacement; higher % means a stronger effect; strong numbers were not always called active;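 active means displacement above 50% without optical interference and an IC50 on retest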;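 further: ATPase domain with a fluorescein-tagged ATP probe; 0% = vehicle and 100% = excess ADP; read after one hour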
MT1-MMP reporter = MT1-MMP gene expression reporter suppression – cell-based, luciferase reporter, luminescence (AID 618); MT1-MMP promoter luciferase reporter cells, luminescence; calls from a first round at 10 µM; hits with a dose series show EC50 in µM; 87,000 compounds, 0.62% hits;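 active means over half of the reporter light lost at 10 µM or EC50 under 50 µM; inactive means the rest and hits that failed the dose series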;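 further: actives suppress MT1-MMP promoter-driven transcription so potencies describe inhibitors; HT1080 fibrosarcoma cells; overnight exposure; toxic or luciferase-blocking compounds were not removed from the actives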
An asterisk follows results filed as active; i = inactive; · = not tested or not shown.

Molecule	WNV NS2B-NS3 inh	Hsc70	MT1-MMP reporter
CSc1nc(N)nc(SCC(=O)c2ccc(C)cc2)c1C#N	0.48	-5.0%	i
C=C(C)Cn1c(SCC#N)nc2ccccc2c1=O	-1.05	-7.1%	i
CN1CCN(CCCNC(=O)Cn2nc(-c3ccccc3)ccc2=O)CC1	-1.86	2.9%	i
CC1(C)CC(=O)C=C(Nc2ccccc2NC(=O)c2cnccn2)C1	0.17	4.0%	i
COCC(C)NC(=O)NC(=O)c1ccc(Cl)cc1 (stereo unspecified)	-0.23	-9.5%	i
COCCNC(=O)CSc1nnc2c(Cl)cc(Cl)cn12	·	-6.7%	i
O=C(C1CCN(S(=O)(=O)N2CCOCC2)CC1)N1CCN(c2ccccc2)CC1	-1.13	-1.5%	i
C=CCn1c(N)c(C(=O)OCCC)c2nc3ccccc3nc21	0.68	-9.6%	i
CC(C)C(=O)NCCn1ccc2ccccc21	-1.23	-3.8%	i
CC1(C)C(=O)OC(C(=O)c2ccccc2)C(C)(C)C1=O (stereo unspecified)	-0.25	9.7%	i
CCn1nc(C(=O)NCCc2ccc(S(N)(=O)=O)cc2)c2ccccc2c1=O	-0.94	-2.2%	i
COC(=O)c1cc(N2C(=O)C3C(C2=O)C2(C)C=CC3(C)O2)ccc1Cl (stereo unspecified)	-0.72	1.2%	i
C/C(=N\NC(=O)C1COc2ccccc2O1)c1cccs1 (stereo unspecified)	·	-0.4%	i
CCNC(=O)CN(C1CCCCC1)S(=O)(=O)c1ccc(F)cc1	-1.39	6.9%	i
CCOC(=O)C1=C(CN2CCSCC2)NC(=O)NC1c1cc(C)ccc1C (stereo unspecified)	-0.46	5.6%	i
CC(C(=O)Nc1ccccc1-c1ccccc1)N1CCCCC1 (stereo unspecified)	·	0.6%	i
Cn1c(NC(=O)c2cccc(Cn3cc(Cl)cn3)c2)nc2ccccc21	0.04	4.0%	i
COc1ccc(/C(O)=C2/C(=O)C(=O)N(CCN(C)C)C2c2ccc(F)cc2)cc1Cl (stereo unspecified)	-0.68	-8.7%	i
O=C1CC(c2cc3c(cc2Br)OCO3)C2=C(CCCC2=O)N1 (stereo unspecified)	-2.11	-0.5%	i
CNc1oc(-c2ccco2)nc1C#N	-0.09	1.0%	i
Cc1cc(/C=C2\SC(N)=NC2=O)c(C)n1-c1ccccc1	·	-12.8%	i
CC(=O)[C@@H]1[C@@H]2C(=O)N(C3CCCCC3)C(=O)[C@@H]2C2c3ccccc3C=CN21 (stereo partly specified)	·	7.3%	i
O=C(O)c1ccc(COc2ccccc2Cl)cc1	0.63	-0.1%	i
CC(=O)c1c(C)c[nH]c1C	0.83	-3.7%	i
Cc1nc(NC(CC(C)C)C(=O)O)c2nc(C)oc2n1 (stereo unspecified)	0.2	-2.5%	i

The list goes on, starting with the last 2 of the part before.
Molecule	WNV NS2B-NS3 inh	Hsc70	MT1-MMP reporter
CC(=O)c1c(C)c[nH]c1C	0.83	-3.7%	i
Cc1nc(NC(CC(C)C)C(=O)O)c2nc(C)oc2n1 (stereo unspecified)	0.2	-2.5%	i
CCSC1=NC(C)(C)C=C(/C=C/c2ccc(Cl)cc2Cl)N1	·	-7.9%	i
CCOc1cc(CNc2ccc3cn[nH]c3c2)ccc1OC	·	2.0%	i
Cc1cc2occ(CC(=O)O)c2cc1C	0.16	0.8%	i
CCOC(=O)C1CCN(Cc2ccccc2C(F)(F)F)CC1	-1.25	-2.4%	i
COC(=O)Cn1nc(-c2ccccc2)c2ccccc2c1=O	0.22	5.7%	i
COCC(C)n1c(C)cc(C(=O)COC(=O)c2c(C)nn(-c3ccccc3)c2C)c1C (stereo unspecified)	0.97	9.1%	i
C=CCNC(=O)c1sc(=S)n(-c2ccc(C(=O)OCC)cc2)c1N	-0.5	6.0%	i
O=c1[nH]c(N2CCOCC2)nc2c1CCCC2	-0.29	0.9%	i
COc1ccc(-c2nc(C#N)c(NC(C)c3ccccc3)o2)cc1OC (stereo unspecified)	0.73	-4.3%	i
Cc1ccc(S(=O)(=O)NC2(C(F)(F)F)NC(=O)N(C)C2=O)cc1 (stereo unspecified)	1.19	-11.9%	i
O=C(c1cccnc1)N1CCN(Cc2ccc3c(c2)OCO3)CC1	-0.68	-1.5%	i
O=C(CSc1ccccn1)c1ccc2c(c1)OCO2	-0.45	-3.9%	i
CCCc1cc(=O)n2[nH]cnc2n1	-0.64	-6.6%	i
O=C(NCSc1ccnc(SCNC(=O)c2ccccc2)n1)c1ccccc1	·	5.5%	i
CCOc1ccc(Oc2nc(Nc3ccc(C)cc3)nc(N(C)C)n2)nn1	-0.38	6.0%	i
CC(Sc1nnc(N)s1)c1ccccc1Cl (stereo unspecified)	0.97	4.1%	i
CC(/C=N/O)Cc1ccc2c(c1)OCO2 (stereo unspecified)	0.1	-12.1%	i
CCN(CC)CCCN1C(=O)C(O)=C(C(=O)c2ccc(C)o2)C1c1cccs1 (stereo unspecified)	-0.79	1.0%	i
Cc1ccc(NC(=O)CS(=O)(=O)c2c[nH]c3ccccc23)c(C)c1	0.94	-3.1%	i
O=c1c(-c2nc3ccccc3o2)c2oc3ccccc3n2c2ccccc12	-0.23	-101.3%	i
CCCS(=O)(=O)N1CCCC(C(=O)NCCCN(C)c2ccccc2)C1 (stereo unspecified)	0.46	-4.4%	i
Cc1ccc2c3c([nH]c2c1C)-c1nonc1CC3	·	2.4%	i
O=C(NCCCN1CCCC1)C1CCC(=O)N1C1CCCCC1 (stereo unspecified)	-1.11	-10.5%	i
[O-][N+]12CCN(CC1)c1ccccc12	-0.94	-8.2%	i
CCOC(=O)Cn1cnc2sc3c(c2c1=O)CCC3	3.59	-10.8%	i

New compounds follow.
Molecule | WNV NS2B-NS3 inh | Hsc70 | MT1-MMP reporter
O=C(c1c(F)cccc1F)N1CCN(c2ccccc2F)CC1 | 0.19 | -5.3% | i
O=C(Cc1ccccc1)N[C@H](c1ccccc1)P(=O)(O)CO | 0.12 | 1.9% | i
CCOC(=O)C1Cc2c([nH]c3ccccc23)CN1 (stereo unspecified) | -0.63 | -1.6% | i
CN(C)S(=O)(=O)N1CCN(C(=O)N2CCCCC2)CC1 | -0.15 | 5.4% | i
NC(=O)CSc1nnc(C2CC2)n1-c1ccccc1 | · | 0.2% | i
Cc1nc2sc(C(c3ccc(Cl)cc3)N3CCOCC3)c(O)n2n1 (stereo unspecified) | -1.05 | -1.1% | i
O=S(=O)(c1ccc(S(=O)(=O)N(Cc2ccc(F)cc2)C2CCCC2)cc1)N1CCCC1 | 0.73 | 0.2% | i
CCCN(CCC)S(=O)(=O)c1ccc2c(c1)CCCN2C(C)=O | 0.44 | -4.6% | i
Cc1c(C(=O)N2CCCCC2)sc(NC(=O)c2ccco2)c1C#N | · | 4.3% | i
COc1cc(/C=C/C(=O)NNc2c(F)c(F)cc(F)c2F)ccc1OC(F)F | · | -3.7% | i
Cc1ccc(C(=O)n2nnc3ccccc32)cc1 | · | -0.3% | i
CC(=O)N1CCN(c2ccc(S(=O)(=O)N3CCCCC3)cn2)CC1 | -0.42 | 0.4% | i

Other records:
Molecule | WNV NS2B-NS3 inh | Hsc70 | MT1-MMP reporter
Cc1nn(C)c(C)c1NC(=O)CSc1nc(-c2ccccc2Cl)nc2c1cnn2-c1ccccc1 | · | 0.4% | i
CCCN1C(=S)SC(C)(C)C1/[N+]([O-])=C/c1cccnc1 (stereo unspecified) | · | 2.6% | i
COc1ccc(OC)c(NC(=O)CSc2nnc(CCCO)n2-c2ccccc2)c1 | 0.08 | 1.1% | i
COc1cc(C2CC(C(F)(F)F)n3ncc(C(=O)O)c3N2)cc(OC)c1OC (stereo unspecified) | -5.78* | -2.6% | i
Cc1cc(Cl)ccc1OCC(=O)Nn1c(C)ccc1C | -0.23 | 2.0% | i
CCn1nc(C(=O)OCC(=O)N2CCc3ccccc32)c2ccccc2c1=O | -0.94 | -1.1% | i
CC(C)C(NC(=O)c1cccc(S(=O)(=O)N2CCOCC2)c1)C(=O)NCCc1ccccn1 (stereo unspecified) | -0.05 | 0.8% | i
O=C(CSc1ncccc1-c1nc2ccccc2[nH]1)N1CCN(c2ccccc2F)CC1 | 2.05 | 0.0% | i
CCC(C)NC(=O)c1c(C)cc(=O)oc1C (stereo unspecified) | 1.26 | -5.9% | i
Cc1cccn2c(=O)c3cc(C#N)c(=NC(=O)c4ccncc4)n(Cc4ccco4)c3nc12 | 0.29 | 3.0% | i
Cc1ccc(Cn2c(Sc3nccc(C)n3)nc3c2c(=O)[nH]c(=O)n3C)cc1 | -1.23 | 2.5% | i
Cc1c(C(=O)NC2=NCCS2)oc2ccccc12 | -0.45 | -9.9% | 9.29µM*

Next section
Molecule | WNV NS2B-NS3 inh | Hsc70 | MT1-MMP reporter
Cc1cc(C)c(S(=O)(=O)Nc2nnc(C)s2)c(C)c1 | -0.57 | -1.9% | i
CCc1nnc(SCC(=O)Nc2ccc(C(C)=O)cc2)nc1CC | -0.44 | -0.7% | i
CCC1C(O)=C(c2ccccn2)C(=N)N1c1ccccc1 (stereo unspecified) | -0.1 | 1.8% | i
COc1ccc(CC(=O)Nc2cccc(-c3nnc(-c4cccc(C)c4)o3)c2)cc1OC | -0.05 | 2.2% | i
CC1=CN2C(=NC(=O)CC2(C)C(=O)N(CC(=O)NC2CCCC2)c2ccccc2C)C=C1 (stereo unspecified) | · | -1.4% | i
CN(C)S(=O)(=O)c1ccc(C(=O)N2CCC(c3nc4ccccc4o3)CC2)cc1 | 0.78 | 1.2% | i
O=C(CSc1nc2ccccc2o1)NCc1n[nH]c(=O)c2ccccc12 | -0.08 | -0.8% | i
CCc1ccc(NC2=NC(C(=O)c3ccccc3)CC(=O)N2)cc1 (stereo unspecified) | 0.37 | 7.4% | i
Cc1ccc2c(C)[nH]c(=O)cc2c1 | -0.39 | 1.2% | i
CN1C2C=C3C(C#N)=C(N)C(C#N)(C#N)[C@@H](c4ccsc4)[C@@H]3C1CC2 (stereo partly specified) | -0.7 | 1.4% | i
OCCNc1nc2ccc(Cl)cc2[nH]1 | 0.82 | -3.7% | i
COc1ccccc1N1CCN(CC(O)COc2ccc3c(C)cc(=O)oc3c2)CC1 (stereo unspecified) | 0.61 | 9.7% | i

Following part:
Molecule | WNV NS2B-NS3 inh | Hsc70 | MT1-MMP reporter
Cc1cccc(OCCC(=O)Nc2ccc(S(=O)(=O)N3CCCC3)cc2)c1 | 0.86 | 1.6% | i
O=C(Cc1c[nH]c2ccccc12)N1CCc2ccccc21 | 1.14 | -1.9% | i
Cc1ccc(C)n1NC(=O)c1ccco1 | -0.56 | 1.9% | i
C(=C\c1cc(/C=C/c2ccccc2)ncn1)/c1ccccc1 | · | 4.6% | i
COc1ccc2cc(C)c(SCC(=O)Nc3cc(C)on3)nc2c1 | 0.15 | 0.9% | i
O=C(CSc1nnc2n1CCCN2C(=S)Nc1ccc(Cl)cc1)c1ccccc1 | · | -2.2% | i
COc1ccc(NC(=O)C2CCC(=O)N2S(=O)(=O)c2ccc(C)cc2)c(OC)c1 (stereo unspecified) | -0.93 | 2.8% | i
Nc1cc(C(=O)N2CCCC2)cc(C(=O)N2CCCC2)c1 | -0.95 | -0.8% | i
Cc1cc(C)c(Cn2c(=O)n(CCCC(=O)NCc3ccco3)c(=O)c3ccccc32)c(C)c1 | -0.92 | 1.6% | i
O=C(C1CCC1)N1CCN(Cc2ccccc2)CC1 | 1.71 | -0.1% | i
O=C(O)CC(c1ccccc1)n1cccc1 (stereo unspecified) | -0.19 | 3.4% | i
CN(C(=O)c1coc(=O)c2ccccc12)c1ccc(F)cc1 | 0.09 | -6.1% | i

The results go on.
Molecule | WNV NS2B-NS3 inh | Hsc70 | MT1-MMP reporter
CNC(=O)C1CC(=O)N/C(=N/N=C(\C)c2cccs2)S1 (stereo unspecified) | · | 1.3% | i
COC(=O)c1cn(NC(=O)c2ccc3c(c2)OCO3)c(=O)c2ccccc12 | 1.87 | 3.1% | i
O=C(Nc1ccn(-c2ccccc2)n1)c1ccc(S(=O)(=O)N2CCCCCC2)cc1 | -0.89 | 2.9% | i
CCNC(=S)NCCN1CCCCC1 | · | -0.7% | i

Among those listed so far, these have a thiophene ring, fused or not:
Molecule | WNV NS2B-NS3 inh | Hsc70 | MT1-MMP reporter
C/C(=N\NC(=O)C1COc2ccccc2O1)c1cccs1 (stereo unspecified) | · | -0.4% | i
CCN(CC)CCCN1C(=O)C(O)=C(C(=O)c2ccc(C)o2)C1c1cccs1 (stereo unspecified) | -0.79 | 1.0% | i
CCOC(=O)Cn1cnc2sc3c(c2c1=O)CCC3 | 3.59 | -10.8% | i
Cc1c(C(=O)N2CCCCC2)sc(NC(=O)c2ccco2)c1C#N | · | 4.3% | i
CN1C2C=C3C(C#N)=C(N)C(C#N)(C#N)[C@@H](c4ccsc4)[C@@H]3C1CC2 (stereo partly specified) | -0.7 | 1.4% | i
CNC(=O)C1CC(=O)N/C(=N/N=C(\C)c2cccs2)S1 (stereo unspecified) | · | 1.3% | i

Compound activity from PubChem.
